Assay outcomes as filed in PubChem.
AmpC nodet inh – inhibitors of E. coli AmpC beta-lactamase without detergent | P00811 | AmpC nitrocefin hydrolysis, absorbance 480 nm, no detergent; potencies from a single point are estimates | Potency, µM (highest dose often 28.7 µM), for inactives: top-dose activity change, negative = inhibition | 71,000 compounds, 1.8% hits; active = falling curve, for most hits resting on a single point; inconclusive = weak or doubtful change; inactive = flat or rising curve; note: % of control where 0% means no effect; about half of the hits show no inhibition at the top dose; a quarter of the inactives give rising signals
Target sequence (P00811 whole entry, looked up): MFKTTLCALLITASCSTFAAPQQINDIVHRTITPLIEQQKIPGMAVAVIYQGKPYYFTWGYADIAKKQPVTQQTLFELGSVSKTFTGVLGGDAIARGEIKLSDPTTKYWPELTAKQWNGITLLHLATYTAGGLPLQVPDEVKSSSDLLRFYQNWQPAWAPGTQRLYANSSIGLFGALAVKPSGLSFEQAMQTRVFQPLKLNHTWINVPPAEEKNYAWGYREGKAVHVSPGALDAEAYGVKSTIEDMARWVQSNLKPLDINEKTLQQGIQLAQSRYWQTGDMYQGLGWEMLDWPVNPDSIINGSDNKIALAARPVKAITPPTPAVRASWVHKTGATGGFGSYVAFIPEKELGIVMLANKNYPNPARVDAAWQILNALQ
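AmpC, 20 mM phosphate pH 7.0; 15 min cpd preinc, RT; start with nitrocefin (800 uM stock); A480 kinetic read, 20 s intervals, 4 min. No-enzyme wells = negative control.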
* marks the source's active call; other numbers are inactive results; & = joins results of further samples; [ ] = dose if it differs, or a comment. Potency is the fitted concentration of half-maximal effect. An excerpt; count on the stated rates, not on these rows.

compound	AmpC nodet inh
COc1ccc(OC)c(CNC(=O)C2CCN(S(=O)(=O)N3CCCC3)CC2)c1	36%
CC(=O)N(C(C)=O)c1c(C#N)c(C)n(-c2ccccc2)c1C(=O)c1ccccc1	37%
C[N+]1(C)CCO[C@](O)(c2ccccc2)C1	-4%[5.75 µM]
O=C(NC1CCCC1)C1CCCN1C(=O)Nc1ccc(Cl)cc1 (stereo unspecified)	4%
Cc1oc(C(=O)O)cc1COc1ccccc1Cl	-5%
CCOC(=O)CCC(NC(=O)c1ccc(NCN2C(=O)c3ccccc3C2=O)cc1)C(=O)OCC (stereo unspecified)	-5%
O=C(NCCc1ccc(Cl)cc1)c1ncn[nH]1	-4%
C=CCN1C(=O)NC2(CCCCC2)C1=O	-7%
CCCCCOC(=O)C1[C@H]2C(=O)N(Cc3cccs3)C[C@]23C=C[C@H]1O3 (stereo partly specified)	35%
NS(=O)(=O)c1ccc(NC(=O)CSC2CCCCC2)cc1	-12%
CS(=O)(=O)N1CCC(C(=O)Nc2ccc(OCc3ccccc3)cc2)CC1	6%
Cc1c(C(=O)NCCCN2CCOCC2)sc2nc(-c3ccccc3)cn12	146%
Cc1nnc(SCC(=O)c2cc(C)n(-c3ccc4c(c3)OCO4)c2C)s1	20%
Cn1c(=O)c2c(nc(Br)n2CCCc2ccccc2)n(C)c1=O	27%
O=C(COCc1nc2ccccc2c(=O)[nH]1)NC1CCCC1	-3%
Cc1ccc2cc(CN(CCN3CCOCC3)C(=O)NCc3ccccc3)c(=O)[nH]c2c1C	154%
C=CCn1c(Cc2csc(N)n2)nnc1SCc1ccc(C(=O)OC)cc1	15%
O=C(O)c1cc(=O)c2c(OCC(O)COc3cccc4oc(C(=O)O)cc(=O)c34)cccc2o1	-1%[12.8 µM]
Cc1ccc(CS(=O)(=O)CCC(=O)NCCCOC(C)C)cc1	6%
COc1ccc(NS(=O)(=O)c2cc(C)ccc2OC)cc1OC	22%
COc1ccc(-c2csc3nc(C)n(-n4cccc4)c(=O)c23)cc1	5%
O=S1(=O)CC(N2CCCCC2)C(N2CCCCC2)C1 (stereo unspecified)	-3%
COC(=O)CC(=O)CSc1nc2c(cc1C#N)CCC2	-3%
Fc1ccc(NC2=NCCS2)cc1Cl	-19%
O=C(CSc1nnc(CNC(=O)c2cccs2)o1)NC1CCCCC1	11%
CCn1c(C(C)NC(C)=O)nc2ccccc21 (stereo unspecified)	5%
O=C(Nc1ccc(OC(=O)c2ccncc2)cc1)c1ccncc1	-15%
CCOC(=O)c1cc2c(=O)n3ccccc3nc2n(CCCOC)c1=NC(=O)c1cccnc1	16%
CCN(CC)c1ccc(NC(=O)c2ccc(NC(=O)C3CCCO3)cc2)c(C)c1 (stereo unspecified)	23%
CCOC(=O)c1ccc(CNC(=O)C(Cc2c[nH]c3ccccc23)NC(C)=O)o1 (stereo unspecified)	10%
CCOC(=O)c1c(C)[nH]c2ccc(O)cc12	-7%
O=C(NCc1ccco1)C(c1ccc(F)cc1)N(Cc1cccnc1)C(=O)Cn1nnc2ccccc21 (stereo unspecified)	18%
CCOCCc1nnc(NC(=O)Cc2ccccc2)s1	-4%
O=C(c1ccco1)N1CCN(S(=O)(=O)c2cccs2)CC1	-14%
O=C(Nc1ccccc1N1CCOCC1)c1ccc2ccccc2n1	3%
Fc1ccc(-c2nnc3ccc(N4CCc5ccccc5C4)nn23)cc1	147%
Cc1ccc(OCC(=O)Nc2ccc(-c3nnc(-c4ccco4)o3)cc2)cc1	12%
CC(=O)Cc1nsc(NC(=O)C2Cc3ccccc3C(=O)O2)n1 (stereo unspecified)	-7%
COC(=O)CC1(CC(=O)OC)C(=O)NC(=O)NC1=O	-14%
Cc1ccc(-n2c(Cc3cccn3C)nnc2SCC(=O)NC2CCCCC2)cc1	82%
O=C(O)C1C2C=CC(C2)C1C(=O)NCc1ccoc1 (stereo unspecified)	-4%
C=CCNC(=O)C1CC=CCC1C(=O)O (stereo unspecified)	-6%
O=C(C1CC(=O)N(C2CCCC2)C1)N1CCC(Cc2ccccc2)CC1 (stereo unspecified)	77%
COc1cc(NC(=O)c2ccc(Br)o2)ccc1NC(=O)C(C)C	-2%
Cc1n[nH]c(C)c1CCN	2%
COc1ccc(Cn2nnc3c(=O)[nH]c(C(=O)NCCc4ccc(F)cc4)nc32)cc1OC	22%
O=c1c(-c2ccc(O)cc2)coc2cc(O)ccc12	-8%&1%&-18%
CCCN1C2=NCCN2c2cc(C)c(C)cc21	0%

Next section; it opens with the three that closed the last part.
compound	AmpC nodet inh
COc1ccc(Cn2nnc3c(=O)[nH]c(C(=O)NCCc4ccc(F)cc4)nc32)cc1OC	22%
O=c1c(-c2ccc(O)cc2)coc2cc(O)ccc12	-8%&1%&-18%
CCCN1C2=NCCN2c2cc(C)c(C)cc21	0%
Nn1cnnc1SC1CCCCC1NS(=O)(=O)c1ccccc1 (stereo unspecified)	-3%
CCOC(=O)C1CCCN(S(=O)(=O)c2ccc(OC)c3ccccc23)C1 (stereo unspecified)	52%
COc1ccc(S(=O)(=O)Cc2ccc(C(=O)N3CCC4(CC3)OCCO4)o2)cc1	2%
Cc1nc(NCc2ccco2)c2c3c(sc2n1)CCC3	32%
O=C(Nc1cc(=O)c2ccccc2o1)N1CCOCC1	23%
Cc1cc(C)nc(SCCn2c(N3CCC(C)CC3)nc3c2c(=O)n(C)c(=O)n3C)n1	43%
CC(C)NC(=O)N1CCC2(CC1)CCN(C(=O)c1ccncc1)CC2	6%
COc1ccc(CN2CCN(S(=O)(=O)c3ccccc3)CC2)c(OC)c1	55%
OC[C@@H](O)CNc1ncnc2ccccc12	-12%[5.75 µM]
O=C(CN1CCN(S(=O)(=O)c2ccccc2)CC1)Nc1cccc(C(F)(F)F)c1	65%
CCCc1cc(=O)n2[nH]c(-c3ccc(Br)cc3)cc2n1	-4%
Cc1noc(/C=C/N(C)C)c1S(=O)(=O)N1CCN(c2ccccc2)CC1	14%
Cc1cccc(Cn2c(C(C)O)nc3ccccc32)c1 (stereo unspecified)	20%
CCC(=O)N1CCc2cc(S(=O)(=O)NCCC(=O)N3CCN(Cc4ccccc4)CC3)ccc21	129%
C#C[C@@]1(O)CC[C@@H]2[C@@H]3CCC4=CC(=O)CC[C@@]4(C)[C@H]3CC[C@]21C	-1%[12.8 µM]
CCOCC(=O)Nc1cc(-c2cn3cccnc3n2)ccc1C	5%
Cc1cc2c(c(=O)n1CCc1ccccc1)C(C(C)C)C(C#N)=C(N)O2 (stereo unspecified)	-8%
COCCSc1ccccc1C(=O)Nc1ccncc1	-19%
COC(=O)c1ccc(C(/C=C/[C@@H](C)C(=O)N[C@H](C)CO)NC(=O)OCc2ccccc2)cc1 (stereo partly specified)	90%
O=C(O)/C(=C\c1ccc(O)cc1)c1cccc2ccccc12	4%[5.75 µM]
CC(C)(CO[C@H]1C[C@H]2CC[C@@]1(C)C2(C)C)[N+](=O)[O-]	-11%[5.75 µM]
Cc1cccc(NC(=O)CN(C)S(=O)(=O)c2cccc3cccnc23)c1	-7%
O=c1cc(CSc2nnc(COc3ccc(Cl)cc3)o2)c2ccccc2[nH]1	11%
Cc1ccc(-n2c(O)cnc2Nc2nc(C)cc(C)n2)cc1	-11%
CCN(CC)CCNC(=O)c1ccc2c(=O)n(CCc3ccccc3)c(=O)[nH]c2c1	30%
CN1CCN(C(=O)c2ccccc2N(Cc2ccccc2)S(C)(=O)=O)CC1	0%
C=CCOc1c(Br)cc(CNn2nnnc2N)cc1OCC	2%
COc1cc(C2C3=C(CC(C)(C)CC3=O)N(C)C(=O)N2C)cc(OC)c1OC (stereo unspecified)	22%
Clc1ccc2nc(N3CCN(c4ccccc4)CC3)sc2c1	-14%
COc1ccccc1C1/C(=C(/O)c2ccccc2)C(=O)C(=O)N1CCO (stereo unspecified)	-8%
COC(=O)c1c(C)ccc2c(O)c3c(cc12)C(=O)c1c2c(cc(O)c1C3=O)[C@@]1(C)O[C@@](C)(O2)[C@@H](O)[C@H](N(C)C)[C@H]1O	-1%[5.75 µM]
Cn1c(SCC(=O)Nc2nccs2)nnc1C12CC3CC(CC(C3)C1)C2	11%

Ordered by molar mass (lowest first): four of the compounds above
compound	AmpC nodet inh
Cc1nc(NCc2ccco2)c2c3c(sc2n1)CCC3	32%
Cc1cc2c(c(=O)n1CCc1ccccc1)C(C(C)C)C(C#N)=C(N)O2 (stereo unspecified)	-8%
Cc1noc(/C=C/N(C)C)c1S(=O)(=O)N1CCN(c2ccccc2)CC1	14%
C=CCn1c(Cc2csc(N)n2)nnc1SCc1ccc(C(=O)OC)cc1	15%

(continued)
compound	AmpC nodet inh
COc1cc(C(=O)Nc2cc(C)c(OCC(=O)N3CCOCC3)c(C)c2)cc(OC)c1OC	70%
O=C(NCC(=O)N(CCN1CCOCC1)C(C(=O)NC1CCCC1)c1cccnc1)c1cccs1 (stereo unspecified)	10%
Cc1c(C(=O)N2CCN(c3ccccn3)CC2)sc2ncnc(N3CCN(c4ccccc4)CC3)c12	90%
O=C(Cc1ccc(Cl)cc1)NCC(=O)N1CCCC1	2%
COc1ccc(C2CCCN2C(=O)Nc2cccc(C(C)=O)c2)cc1OC (stereo unspecified)	21%
CCN1CCN(C(c2cccs2)C(C)NC(=O)c2ccccc2OC)CC1 (stereo unspecified)	28%
CC1CCN(S(=O)(=O)c2ccc(F)c(C(=O)O)c2)CC1	-8%
Cc1csc(NC(=O)CSc2nc(C(C)C)nc3c2c(=O)n(C)c(=O)n3C)n1	19%
Cc1c(Br)c(C(F)(F)F)nn1CC(=O)NCC1CCCO1 (stereo unspecified)	21%
CCOCCCNC(=O)C1CCC(CNS(=O)(=O)c2cccc3nsnc23)CC1 (stereo unspecified)	21%
CC/C(O)=C(/C#N)c1nnc2n1CCCCC2	-10%
CCn1ccnc1C[C@@H]1COc2ccccc2O1	6%&2%
Cc1ccc(S(=O)(=O)NCc2cccc([N+](=O)[O-])c2)cc1	-1%[5.75 µM]
COc1ccc(OC)c(NC=C2C(=O)OC3(CCCCC3)OC2=O)c1	75%
COc1ccc(NC(=O)c2cc3c(=O)n(C)c4ccccc4c3n2C)cc1OC	160%
COc1ccccc1N1CCN(C(=O)c2cc(-c3ccc(Cl)cc3)on2)CC1	70%
CCC(O)c1cc2c(cc1NC(=O)c1cccs1)OCCO2 (stereo unspecified)	25%
COC(=O)C(C(=O)NCC1CCCO1)C1CCCCCC1 (stereo unspecified)	10%
O=C(Cc1cn2ccsc2n1)OCc1nc2ccccc2s1	2%
Cc1ccc2cc(CN(Cc3cccs3)C(=O)c3ccco3)c3nnnn3c2c1C	-11%
N=c1c2c(-c3ccccc3)c(-c3ccccc3)oc2ncn1CCCN1CCOCC1	130%
CN(C)c1nc(-c2ccccc2)c2cnn(Cc3ccccc3)c2n1	5%
Cc1ccccc1-c1nnc(SCc2ccccc2F)o1	-5%
COc1cccc(-c2nnc(SCC(=O)N3CC(C)CC(C)C3)o2)c1 (stereo unspecified)	80%
CCCOC(=O)c1c(N)sc2c1CCC2	6%
O=S(=O)(Cc1ccccc1)N1CCC(c2nc(-c3cccs3)no2)CC1	0%
COc1cc(Cl)ccc1NC(=O)COc1ccccc1C(=O)N1CCN(c2ccc(O)cc2)CC1	41%
Cc1cccc(C)c1NC(=O)N1C2CCCC1CC(NC(=O)C(C)(C)C)C2 (stereo unspecified)	49%
Cc1cc(N2CCC(C(=O)NC3CCCCC3)CC2)nc(-c2ccccc2)n1	86%
CC(C)CCn1c(CN(C)Cc2ccccc2)nc2c1c(=O)n(C)c(=O)n2C	-5%
CCn1c(N2CCN(CC(=O)c3ccc(OC)cc3)CC2)nc2ccccc21	61%
NS(=O)(=O)c1ccc(CCNC(=O)C2CCCN2C(=O)OCc2ccccc2)cc1 (stereo unspecified)	1%
CCCCCNCCCCC	1%
O=c1c(-c2ccc(F)cc2)coc2c3c(ccc12)OCCO3	-14%
COc1ccc(C)cc1-n1nnnc1SCn1nnc2ccccc2c1=O	14%
COc1ccc2cc(CN(CCc3ccccc3)Cc3nnnn3CC3CCCO3)c(=O)[nH]c2c1 (stereo unspecified)	-11%
Cc1ccc(S(=O)(=O)CCc2ccccn2)cc1	6%
CC(=O)N1c2c(cc(Br)cc2S(=O)(=O)NCc2ccc3c(c2)OCO3)CC1C (stereo unspecified)	-8%
Cc1cc(C(F)F)n2ncc(C(=O)N3CCc4ccccc4C3)c2n1	27%
CSc1n[nH]c(NC2=CC(=O)CCC2)n1	-15%
CCOc1c(S(=O)(=O)N2CCCC2)ccc(Cl)c1Cl	12%
Cn1cnnc1SCC(=O)Nc1sc2c(c1C(N)=O)CCC2	10µM*
O=C(NCCc1ccccc1)C1CCCN(S(=O)(=O)c2cccc3nonc23)C1 (stereo unspecified)	-5%
COc1cccc(-c2nnc(SCCC(=O)O)n2C)c1	-15%
FC(F)(F)c1cc(-c2ccco2)nc(NCc2ccco2)n1	-7%
COCc1cc(=O)n2[nH]c(-c3cccc(Br)c3)cc2n1	-19%
CNc1nc(SCC(=O)OC)nc(N2CCOCC2)n1	-19%
Cn1c(SCCOc2ccccc2Cl)nnc1-c1ccncc1	46%
CC(C)CNS(=O)(=O)c1ccc(S(=O)(=O)N2CCCN(Cc3ccccc3)C2)cc1	-3%
